Source: PubChem BioAssay
D2 ag – activates the human D2 dopamine receptor | DiscoveRx PathHunter D2 beta-arrestin, luminescence, 90 min; 100% = 57 uM dopamine signal | activation, % (test concentration not listed) | actives 0.084% (n = 360,000) | AID 624465; in the data active = activation above about 40%; inconclusive = about 15% to 40%; inactive = below about 15%; note: compound concentration not given in the record; the text of the record calls up to 30% inactive
Target sequence (P14416 whole entry, looked up): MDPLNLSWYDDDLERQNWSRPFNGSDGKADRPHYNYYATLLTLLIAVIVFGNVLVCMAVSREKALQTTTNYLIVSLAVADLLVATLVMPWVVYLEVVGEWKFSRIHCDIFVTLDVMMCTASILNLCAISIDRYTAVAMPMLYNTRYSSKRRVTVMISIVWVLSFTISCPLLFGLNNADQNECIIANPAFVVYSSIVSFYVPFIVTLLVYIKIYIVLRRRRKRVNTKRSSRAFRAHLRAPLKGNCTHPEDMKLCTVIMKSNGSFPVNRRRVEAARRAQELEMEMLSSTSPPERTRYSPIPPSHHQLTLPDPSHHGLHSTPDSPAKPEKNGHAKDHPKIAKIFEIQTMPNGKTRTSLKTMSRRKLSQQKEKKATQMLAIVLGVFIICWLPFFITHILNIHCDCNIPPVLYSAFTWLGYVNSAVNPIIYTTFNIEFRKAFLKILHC
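DiscoveRx PathHunter D2 beta-arrestin cells (2,100/well) attached overnight, then compound-stimulated 90 min at 37 C in HBSS/10 mM HEPES/0.1% Tween-20 buffer; beta-galactosidase complementation read by luminescence after 1 h at ambient temperature. Dopamine 57 uM final (EC100) as control.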
PINK1 expr mod – changes PINK1 expression; actives 0.2% (n = 410,000); Potency, µM (highest dose often 76.6 µM), inactives show at the highest dose activation (PINK1 increase), actives largely listed as activators; PINK1 immunofluorescence, high-content cytometry, 24 h; active = well fitted activation curve with a large enough effect; inconclusive = small, poorly fitted or top-dose-only effect; inactive = flat fitted curve, though single readings scatter; cell line not stated here;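 note: potency is the fitted concentration of half-maximal effect; % of control where 0% means no effect; nearly all actives have a fitted effect of over 65% in size; a mitochondrial uncoupler was the plate control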
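Readout is PINK1 immunofluorescence, quantified alongside mitochondrial, cell and nuclear markers by laser-scanning microplate cytometry. Cells from a stable line were exposed to compound titrations (5 concentrations) for 24 hours, with CCCP controls.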
TRPML1 agonist – activates the human TRPML1 channel; Q9GZU1; TRPML1-expressing cells, Ca2+ dye fluorescence, FDSS; host cell line not named in the record; reference of the full effect not given here; activation, % (concentration not given with the values); actives 0.12% (n = 410,000); in the data active = activation above about 50%; inconclusive = about 30% to 50%; inactive = below about 30%; note: 0% is about no effect; the text of the record puts the active cut at 80%
Target sequence (Q9GZU1 whole entry, looked up): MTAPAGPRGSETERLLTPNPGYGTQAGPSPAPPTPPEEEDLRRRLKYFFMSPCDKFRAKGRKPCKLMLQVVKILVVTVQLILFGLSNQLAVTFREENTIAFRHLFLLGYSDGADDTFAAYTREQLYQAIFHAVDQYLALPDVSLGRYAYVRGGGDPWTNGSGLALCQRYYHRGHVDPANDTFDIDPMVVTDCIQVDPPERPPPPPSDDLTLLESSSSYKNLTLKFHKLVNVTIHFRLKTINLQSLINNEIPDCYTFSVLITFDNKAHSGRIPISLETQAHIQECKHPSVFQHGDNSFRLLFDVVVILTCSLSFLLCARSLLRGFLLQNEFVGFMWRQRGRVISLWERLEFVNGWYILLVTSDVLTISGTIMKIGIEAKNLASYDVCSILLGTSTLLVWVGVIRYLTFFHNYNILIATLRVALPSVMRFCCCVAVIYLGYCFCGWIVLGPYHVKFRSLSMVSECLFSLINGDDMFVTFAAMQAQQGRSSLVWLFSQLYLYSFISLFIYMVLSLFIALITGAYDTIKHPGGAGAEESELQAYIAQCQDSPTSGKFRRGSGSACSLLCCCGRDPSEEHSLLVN
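Tetracycline-induced TRPML1-DL cells are seeded and incubated overnight before loading with a no-wash Ca2+ dye and quencher. Agonist activity is taken from the 110 s fluorescence read following compound pin-transfer on an FDSS, before EC80 54-4 challenge.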
Six1-Eya2 inh – blocks human Six1 binding to Eya2; actives 0.56% (n = 360,000); AID 651725; activity change, % (no concentration beside the values); Q15475+O00167; AlphaScreen GST-Six1/His-Eya2 binding, biochemical; hits give low values; control for the full effect not named in the record; in the data active = activity change below about -65%; inconclusive = about -30% to -65%; inactive = above about -30%; note: % is set by controls: 0 for no effect and ±100 for the full control effect; compound concentration not given in the record
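AlphaScreen luminescence read after one hour at 37 °C in darkness. Pin-transferred compounds met GST-Six1 and His-Eya2 protein (5X stock 250 nM/500 nM) plus glutathione donor and Ni-chelate acceptor beads (5X, 50 ug/mL).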
CtBP-E1A inh – CtBP/E1A binding inhibition | AlphaScreen GST-E1A/His-CtBP binding, 1536-well; hits give low values; control for the full effect not named in the record | activity change, % (test concentration not listed) | actives 0.49% (n = 340,000) | AID 651724; in the data active means activity change below about -65%; inconclusive means about -30% to -65%; inactive means above about -30%; note: % is set by controls: 0 for no effect and ±100 for the full control effect; compound concentration not given in the record
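Homogeneous bead-based format: GST-tagged E1A captured on glutathione donor beads, His-tagged CtBP on nickel acceptor beads; compounds precede bead addition by 2 h at 37 °C.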
TRPML1 inh – blocks the human TRPML1 channel; activity change, negative = inhibition, % (test concentration not listed); AID 624415; Q9GZU1; TRPML1-inducible cells, Ca2+ dye fluorescence, FDSS; hits give low values; inhibition of EC80 agonist-evoked calcium signal; actives 0.02% (n = 390,000); in the data active means activity change below about -50%; inconclusive means about -30% to -50%; inactive means above about -30%;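 note: stimulus is agonist 54-4 at its EC80 concentration; % is set by controls: 0 for no effect and ±100 for the full control effect; compound concentration not given in the record; the text of the record puts the active cut at -80%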
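TRPML1-DL cells, Tet-induced overnight (~16 h, 37 °C) at 1,500 cells/well, were loaded with Ca8 no-wash dye plus quencher for 45-90 min at room temperature. Compounds were pinned during FDSS kinetic reading; agonist 54-4 at EC80 (4 uM final) then added.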
* marks the source's active call; other numbers are inactive results; u = inconclusive; x = no result given; & = joins results of further samples; [ ] = remark or other dose.

SMILES	D2 ag	PINK1 expr mod	TRPML1 agonist	Six1-Eya2 inh	CtBP-E1A inh	TRPML1 inh
CCCN(CCC)C(=O)c1cc(-c2ccc3c(c2)OCO3)nc2ccccc12	-2.3	4.3%	0.8	6	1	16
COC(=O)c1scc(S(=O)(=O)C(C)(C)C)c1N	1.4	1.6%	-0.2	-10	4	12
CN(C(=O)c1ccccc1C(=O)OCC(=O)c1ccc(F)cc1)c1ccccc1	-3.1	3.7%	-1.3	2	x	-13
CCc1ccc(NC(=O)[C@H](NC(=O)[C@@H]2Cc3ccccc3CN2)c2ccccc2)cc1	-5.7	2.0%	0.9	3	-12	21
O=[N+]([O-])c1cccnc1C1OCCO1	3.6	1.2%	0.1	-1	0	4
CC(C)(C)c1ccc(C(=O)C2CCCN(C(=O)CCn3cncn3)C2)cc1 (configuration not stated)	-1.7	-0.3%	-0.5	5	1	41
O=S(=O)(Nc1cc(F)ccc1F)c1ccc2[nH]c3c(c2c1)CCCCC3	x	6.8%	2.5	x	x	4
COc1ccc(C(=O)NCCN2CCC(n3c(=O)[nH]c4ccccc43)CC2)cc1F	x	-0.6%	-0.7	-5	1	x
CCOc1ccc(OCCC(=O)OCC(=O)NCc2ccc(Cl)cc2)cc1	-6.0	0.8%	-0.5	1	1	19
Cc1cccc(-c2noc(CCCC(=O)NCC3CCCO3)n2)c1 (configuration not stated)	-2.5	-0.5%	0.6	-3	-6	-5
CCOC(=O)C1=C(CN2CCCCC2)NC(=O)NC1c1ccc(C)cc1 (configuration not stated)	x	3.9%	-0.4	x	x	-13
CC(=O)Nc1ccc(Cl)c(C(N)=O)c1	2.4	2.2%[38.3 µM]	0.6	4	1	-6
CCOC(=O)N1CCN(C(=O)c2cc(COc3ccc4ncccc4c3)on2)CC1	u	-1.3%	0.7	-11	-4	-6
NC(=O)c1ccc(NC(=O)CN2CCN(Cc3ccccc3)CC2)cc1	-3.2	0.3%	0.7	-9	x	-9
N#CC(c1ccc(Cl)cc1)c1cccc(Cl)n1 (configuration not stated)	-0.7	6.3%	1.3	12	8	-11
Cc1nc(NC(=O)COC(=O)CCc2nc3ccccc3s2)c(Cl)cc1Cl	0.6	0.4%	-1.2	3	x	-6
CCCn1c(CNC(=O)c2ccccc2)nc2ccccc21	-1.2	4.1%[38.3 µM]	0.0	5	3	-14
Cc1onc(-c2c(F)cccc2Cl)c1C(=O)Nc1cccc(Cn2cccn2)c1	-0.6	-4.3%[38.3 µM]	0.9	-3	-4	-2
Cc1ccc(OCCNC(=O)c2ccccc2O)cc1	0.1	16%	-0.1	8	10	10
O=C(Nc1cccc(-c2nc3ccccc3[nH]2)c1)c1c(F)cccc1F	x	4.0%	0.4	x	x	7
CCCc1nc(SCC(=O)Nc2nc3c(s2)CCCC3)c2ccccc2n1	0.2	x	0.6	17	53	-2
CS(=O)(=O)N(CC(=O)N1CCN(Cc2ccccc2)CC1)Cc1ccccc1	0.1	-1.0%[38.3 µM]	0.3	0	6	-13
OCc1nc2ccccc2n1CCCOc1ccccc1	0.2	-1.4%[38.3 µM]	-0.6	-2	9	-1
CCOC(=O)c1c(-c2ccccc2)csc1NC(=O)/C(C#N)=C/c1ccc(O)c(OC)c1	-3.1	15%	0.8	-24	u	-7
Cc1c(C(=O)NNC(=O)c2ccccc2O)oc2ccccc12	-1.7	-0.6%	-1.1	-8	-13	-3
COc1ccc(NC(=O)CN(C)CC(=O)NC(=O)NC2CCCCC2)cc1	-5.5	1.0%	0.1	-6	11	-8
Cc1sc2ccccc2c1CNC[C@H]1O[C@@H](n2ccc(=O)[nH]c2=O)[C@H](O)[C@@H]1O	-4.0	0.4%	0.0	3	5	-7
C[C@H](NS(=O)(=O)c1ccc(Cl)c(Cl)c1)C(=O)OCc1cc(=O)n2cc(Br)ccc2n1	-0.4	0.7%	2.0	-13	-4	8
CC(C)c1nn2c(=O)cc(COC(=O)c3ccc4c(c3)OCO4)nc2s1	x	0.4%	-0.8	x	x	19
CC(=O)c1ccc(OCc2cc(C(=O)NCCc3ccc(Cl)cc3)no2)cc1	7.3	5.3%	0.7	2	9	38
COc1ccc(S(=O)(=O)N2CCOCC2)cc1NC(=O)CCNC(=O)c1ccc(Br)cc1	-3.7	0.8%	1.9	-3	0	-20
COc1cccc(C(=O)NC2CCN(C(=O)N3CCCCC3)CC2)c1	-2.2	-0.9%	0.0	3	3	0
COc1ccc(/C=N/NC(=O)C(C)n2nnc3ccccc32)cc1OC (configuration not stated)	-0.7	-0.1%	-0.3	-15	-12	12
Cc1ccc(NC(=S)Nc2ccc(S(=O)(=O)N3CCOCC3)cc2)cc1S(=O)(=O)N1CCOCC1	-8.7	1.4%	-0.2	7	-21	-9
COc1ccc(CN2CCCC(CNC(=O)c3ccc(F)cc3)C2)cc1OC (configuration not stated)	-6.1	0.4%	0.4	6	0	1
COCC(C)NC(=O)CCS(=O)(=O)c1nc(-c2ccc(OC)cc2)cc(C(F)(F)F)n1 (configuration not stated)	-2.3	-2.8%	-1.5	-2	1	4
COc1ccc(-c2nnc(SCC(=O)NC3CCCCC3)o2)cc1OC	-6.7	3.5%	0.3	-1	3	-11
CCn1cc(C(=O)N2CCN(Cc3ccc4c(c3)OCO4)CC2)c(=O)c2ccc(C)nc21	5.7	1.8%	-0.4	1	-1	8
COc1cc(CN2CCN(C(=O)c3ccc(-c4ccccc4)cc3)CC2)cc(OC)c1OC	0.3	-0.1%	-0.3	-14	-15	-1
NS(=O)(=O)c1ccc(NC(=S)N2CCN(c3ccccc3Cl)CC2)cc1	4.1	u	0.4	1	-4	-15
CC(C)NC(=O)COC(=O)c1ccc(Cl)c(S(N)(=O)=O)c1	-2.7	1.1%	0.3	-13	0	-11
CN(CC(=O)N1CC=C(c2ccccc2)CC1)S(=O)(=O)c1ccc2c(c1)c(=O)n(C)c(=O)n2C	3.6	7.5%	0.2	-15	-5	-1
C=CCN(c1ccccc1OC)S(=O)(=O)c1cccc(C(=O)NCc2ccco2)c1	0.2	1.9%	1.2	-3	6	-3
Cn1c(=O)cc(SCC(=O)NCC2CCCO2)c2ccc(Cl)cc21 (configuration not stated)	-0.7	-0.4%	0.4	1	2	-7
O=C(Cn1ccc2ccccc21)Nc1ccc2c(c1)OCO2	-0.7	8.0%	-0.9	-7	-1	-13
COc1ccc(S(=O)(=O)N2CCCC(N(C)CCc3ccccc3)C2)cc1OC (configuration not stated)	-3.1	1.1%	0.8	-2	0	-8
O=C1C(C=NCC2CCCO2)=C(O)c2ccccc21 (configuration not stated)	-4.1	1.5%	0.5	-11	-13	18
Nc1ccc(C(=O)OCC(=O)N2CCOCC2)cc1[N+](=O)[O-]	-1.2	0.6%	4.0	2	-1	-4
Cc1cccc(NC(=O)CSc2cccc[n+]2[O-])c1C	-4.6	-0.9%	1.8	-2	0	26
CC(=O)Nc1ccc(S(=O)(=O)Nc2nccc(C3Cc4ccccc4C(=O)O3)n2)cc1 (configuration not stated)	-2.6	u	0.0	0	2	24
CCCCCC(=O)N1C[C@H](n2cc(C3CC3)nn2)[C@@H](O)C[C@@H]1c1ccc(OC)cc1	-0.3	-0.1%	x	-3	-6	x
COc1ccccc1C(=O)NCCC(=O)N1CC=C(c2ccccc2)CC1	-2.0	-2.5%	2.5	1	-18	-7
Cc1ccc(S(=O)(=O)N2CCc3ccccc3C2CC(=O)O)cc1 (configuration not stated)	0.8	0.9%	x	18	-1	x
O=C(N=C1N=C2C=CC(Br)=CN2Cc2ccccc21)c1ccc([N+](=O)[O-])cc1[N+](=O)[O-]	2.8	0.2%	0.7	18	-7	2
O=C1CCCC2=C1C(c1ccccc1)C1C(=O)c3ccccc3C1=N2 (configuration not stated)	-5.0	2.7%	-0.5	u	u	41
CC(=O)NC(c1ccc(F)c(F)c1)c1nc(-c2ccccc2)cs1 (configuration not stated)	1.6	2.5%	-0.3	1	2	x
CC(C)C(=O)NN(C(=O)c1ccccc1)c1ccccc1	-1.8	0.1%	3.0	2	3	0
Cc1ccccc1Cn1nc(C)c(NC(=O)c2cc(CC(C)C)on2)c1C	0.7	0.4%&0.2%	1.1&0.1	-3	9	17&33
COc1ccc(/C=N/NC(=O)c2ccc(COc3ccccc3Cl)o2)cc1	-4.4	3.9%	0.6	-21	2	0
COC(=O)COc1ccc(S(=O)(=O)Nc2ccc3c(c2)OCO3)cc1	3.7	-1.0%[38.3 µM]	0.8	-4	4	-10

Brought forward from above: five entries, followed by the next part.
SMILES	D2 ag	PINK1 expr mod	TRPML1 agonist	Six1-Eya2 inh	CtBP-E1A inh	TRPML1 inh
CC(=O)NC(c1ccc(F)c(F)c1)c1nc(-c2ccccc2)cs1 (configuration not stated)	1.6	2.5%	-0.3	1	2	x
CC(C)C(=O)NN(C(=O)c1ccccc1)c1ccccc1	-1.8	0.1%	3.0	2	3	0
Cc1ccccc1Cn1nc(C)c(NC(=O)c2cc(CC(C)C)on2)c1C	0.7	0.4%&0.2%	1.1&0.1	-3	9	17&33
COc1ccc(/C=N/NC(=O)c2ccc(COc3ccccc3Cl)o2)cc1	-4.4	3.9%	0.6	-21	2	0
COC(=O)COc1ccc(S(=O)(=O)Nc2ccc3c(c2)OCO3)cc1	3.7	-1.0%[38.3 µM]	0.8	-4	4	-10
CC(C)C(C)NC(=O)COn1nnc2ccc(S(=O)(=O)N3CCOCC3)cc21 (configuration not stated)	-0.5	1.2%	-0.8	2	x	-8
CCCCNC(=O)c1cn(CC)c2cc(N3CCN(C(=O)c4ccco4)CC3)c(F)cc2c1=O	-2.0	-0.6%	0.0	-1	7	-4
Cc1ccc(Cc2c(-c3cccc(Cl)c3)nc3c4ccccc4ccn23)cc1	-5.4	0.5%	-0.5	2	4	x
COC(=O)c1cc(OC)c(OC)cc1NC(=O)c1cc(OC)cc(OC)c1	0.0	6.0%	2.5	18	-1	53
CCN(Cc1ccccc1)C(=O)CCc1nnc(CCCc2ccccc2)o1	0.1	0.0%	0.9	18	5	-9
Cc1cc(C(=O)O)c(C)n1-c1ccccc1	-1.2	-0.9%	0.5	0	7	-6
O=C(Cc1ccccc1)N1CCN=C1SCc1ccc([N+](=O)[O-])cc1	-2.3	0.8%	-0.5	-6	3	20
O=C1CC(C(=O)N2CCN(S(=O)(=O)c3cccc(F)c3)CC2)CN1Cc1ccccc1Cl (configuration not stated)	-6.0	3.5%	-1.3	1	2	-14
COc1ccc(CCNC(=O)CCCCn2c(=O)c3ccccc3n(Cc3cc(C)ccc3C)c2=O)cc1OC	x	-0.7%	-0.2	x	x	17
CCC1(C)SC(N)=NN1C(C)=O (configuration not stated)	1.1	5.9%	0.2	1	0	-8
CCOC(=O)c1c(C)[nH]c(C(=O)/C(C#N)=C/c2ccc(OC(F)F)c(OC)c2)c1C	-2.7	-1.4%	-0.2	2	-1	26
CCOC(=O)c1c(S(=O)(=O)N2c3ccccc3CC2C)c(C)n(C)c1C (configuration not stated)	-3.6	0.2%	-1.2	-5	-5	1
